FEN1 inhibitor = blocks human flap endonuclease 1; P39748; Recombinant FEN1 flap cleavage, fluorescence, 15 min; Potency, µM (doses to about 114 µM), without a hit: top-dose activity change, negative = inhibition, hits mostly inhibitors; 390,000 compounds, 0.35% hits; AID 588795; note: nearly all actives have a fitted effect of over 65% in size
Target sequence (P39748 whole entry, looked up): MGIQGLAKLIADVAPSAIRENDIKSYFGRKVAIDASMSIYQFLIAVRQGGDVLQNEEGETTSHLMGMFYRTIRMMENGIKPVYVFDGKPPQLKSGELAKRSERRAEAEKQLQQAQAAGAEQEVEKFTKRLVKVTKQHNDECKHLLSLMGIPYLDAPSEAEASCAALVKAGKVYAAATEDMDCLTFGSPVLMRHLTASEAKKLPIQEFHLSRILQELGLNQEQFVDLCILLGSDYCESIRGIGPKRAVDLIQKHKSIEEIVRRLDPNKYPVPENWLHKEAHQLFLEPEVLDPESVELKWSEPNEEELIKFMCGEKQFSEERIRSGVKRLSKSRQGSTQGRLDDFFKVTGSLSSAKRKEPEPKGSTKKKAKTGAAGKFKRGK
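Enzyme 10 nM, 15 min RT preincubation with compound; start with substrate 50 nM final; reads at 0 and 15 min; qHTS titration, four-parameter Hill fit.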
N370S GC mod = N370S glucocerebrosidase modulation, Gaucher chaperone candidate | P04062 | N370S GC spleen homogenate, 4MU-glucoside fluorescence | Potency, µM (doses to about 59.4 µM), without a hit: top-dose activity change, negative = inhibition, usual class: inhibitors | 330,000 compounds, 0.092% hits;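 note: 0% = full enzyme activity and -100% = no enzyme basal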
* hit, by the source's call; ? = inconclusive; . = not tested or not shown; & = joins results of further samples; [ ] = another dose, or the depositor's remark. Calls come from the whole dose curve; as a rule, active = well fitted curve in the direction sought with a large enough effect; inconclusive = small, poorly fitted or top-dose-only effect, or another doubt; inactive = no such curve, though single readings can be large; an effect the other way counts as inactive or inconclusive. Unless noted, % is set by controls: 0 for no effect and ±100 for the full control effect; potency is the fitted concentration of half-maximal effect.

FEN1 inhibitor	N370S GC mod	structure
0.0%	6.0%	O=[N+]([O-])c1cn(-c2nc(-c3ccco3)cc(C(F)(F)F)n2)cn1
3.0%	.	CC1CCCCC1NC(=O)NC(=O)COC(=O)C1=NN(c2ccccc2)C(=O)CC1 (stereo not drawn)
-10.1%	-6.8%	O=C(CNC1=NCCC1)c1ccc2c(c1)OCCO2
0.2%	-5.5%	Cc1c(C(=O)N2CC(C)OC(C)C2)sc2nc(-c3ccc(F)cc3)cn12 (stereo not drawn)
17.7%	.	COc1cccc(NC(=O)Cn2c(=O)cc(C)c3c(C)nn(-c4cccc(F)c4)c32)c1
-1.2%	-11.4%	CC(C)(C)c1ccc(C(=O)N/C(=C\c2cccs2)C(=O)N2CCOCC2)cc1
15.0%	-5.8%	Cn1ncc(Cl)c1C(=O)N/N=C/c1cc2c(cc1[N+](=O)[O-])OCO2
-1.1%	-2.1%	CC1CCc2nc(/C(C#N)=C/c3cccnc3)sc2C1 (stereo not drawn)
-4.3%	-3.7%	COc1cc(/C=C2\CC/C(=C\c3cc(OC)c(OC)c(OC)c3)C2=O)cc(OC)c1OC
-12.7%	-0.7%[12.8 µM]	CC(=O)OC(C)(C)C#CCN1CCCC1
7.1%	-5.3%	CCCCN(C)CCNC(=O)C(=O)c1c(C)[nH]c2ccccc12
-1.3%	.	COc1cccc(NC(=O)CN(Cc2ccccc2)S(=O)(=O)c2ccc3nc(C)sc3c2)c1
-14.7%	-14.1%	Cc1nc(NC(=O)COC(=O)C(NC(=O)c2ccco2)C(C)C)c(Cl)cc1Cl (stereo not drawn)
-8.2%	.	CCC(C)N1CC(C(=O)O)CC1=O (stereo not drawn)
-15.5%	4.7%	CC1(c2ccncc2)Nc2ccccc2-c2nc3ccccc3n21 (stereo not drawn)
10.9%	8.4%	O=C(CSc1nc2ccccc2o1)Nc1nc2ccc(Br)cc2s1
-2.4%	-12.3%	COc1cc(/C(C)=N/NC(=O)c2cccc(S(=O)(=O)N3CCCC3)c2)cc(OC)c1OC
-3.9%	-0.1%	O=C(NCC(c1ccco1)N1CCN(c2ccc(F)cc2)CC1)c1ccc2c(c1)OCO2 (stereo not drawn)
18.1%	-2.7%	Cc1cccc(C(=O)NNC(=O)c2ccccc2[N+](=O)[O-])c1
-3.7%	-17.6%	Cc1ccc(C(=O)N2CCN(CCNC(=O)C(=O)NC(C)C)CC2)cc1
-11.4%	4.6%	O=C(NCc1ccccc1)c1c(O)c2cccc3c2n(c1=O)CCC3
-1.4%	-7.5%	COc1ccc(CNS(=O)(=O)c2ccc3c(c2)NC(=O)CS3)cc1
-8.2%	12.4%	Cc1cccc(Cn2nc(-n3cccc3)c3c(C)cc(C)nc32)c1
38.1%	3.8%	Cc1cccc(OCc2nc(-c3nonc3N)no2)c1C
-23.5%	.	COc1cc(NS(=O)(=O)c2ccc3[nH]c4c(c3c2)CCCCCC4)cc(OC)c1
-13.2%	-11.4%	Cc1ccc(NC(=O)c2ccccc2-c2ccc(C(F)(F)F)cc2)cc1S(=O)(=O)N1CCOCC1
6.8%	18.9%	O=C(COC(=O)c1ccccc1Nc1ccccc1)c1ccccc1
-0.6%	5.9%	Cc1ccc(-c2ccc(=O)n(CC(=O)NCCN3C(C)CCCC3C)n2)cc1 (stereo not drawn)
-19.2%	-20.3%	Cc1cc(S(=O)(=O)NC2CCN(Cc3ccccc3)CC2)c(C)cc1Cl
-4.6%	6.2%	Cc1cc(C)c2c(N)c(C(=O)Nc3ccccc3F)sc2n1

Reformatted: 4 of the compounds above
smiles: COc1cccc(NC(=O)CN(Cc2ccccc2)S(=O)(=O)c2ccc3nc(C)sc3c2)c1
  FEN1 inhibitor = -1.3% | N370S GC mod = .
smiles: O=C(NCc1ccccc1)c1c(O)c2cccc3c2n(c1=O)CCC3
  FEN1 inhibitor = -11.4% | N370S GC mod = 4.6%
smiles: Cc1cccc(Cn2nc(-n3cccc3)c3c(C)cc(C)nc32)c1
  FEN1 inhibitor = -8.2% | N370S GC mod = 12.4%
smiles: Cc1cccc(C(=O)NNC(=O)c2ccccc2[N+](=O)[O-])c1
  FEN1 inhibitor = 18.1% | N370S GC mod = -2.7%

Following part.
FEN1 inhibitor	N370S GC mod	structure
-0.3%	10µM*	CCOc1cc(CNCCO)cc(Br)c1OCc1ccc(Cl)cc1Cl
3.9%	-9.4%	CC(OC(=O)CC1CCCC1)C(=O)Nc1ccc(S(N)(=O)=O)cc1 (stereo not drawn)
.	0.4%	COc1ccc(C(=O)Oc2ccc(C(=S)N3CCCC3)cc2)cc1OC
-3.6%	5.5%	CC1CCN(C(=O)c2cc3nc(C4CC4)cc(C(F)(F)F)n3n2)CC1
-6.1%	0.0%	COc1ccc(C(=O)C2CCCN(C3Cc4ccccc4C3)C2)c(OC)c1 (stereo not drawn)
-26.6%	2.9%	CCOc1cc(C(=S)N2CCC(O)CC2)ccc1OS(=O)(=O)c1ccc(Br)cc1
21.6%	.	O=C(NCC(c1cccnc1)N1CCc2ccccc2C1)c1ccc(F)c(F)c1 (stereo not drawn)
-5.3%	1.5%	COc1ccc(NC(=O)CSc2nc(=O)n(CCN(C)C)c3c2CCCC3)cc1OC
-7.0%	9.7%	Cc1cc(C(=O)Cn2nc(C(=O)O)c3ccccc3c2=O)c(C)n1CCc1ccc(F)cc1
2.3%	-6.5%	CC(C)CC(O)C1CCN(C(=O)CCc2nnc(-c3ccccc3)o2)CC1 (stereo not drawn)
-11.7%	-7.2%	Cc1csc2c(C#N)c(=O)c3c(n12)CCC3
-12.7%	-6.6%	CC(C)N=C(Nc1cccnc1)c1ccccc1
4.7%	10.3%	S=C(Nc1ccccc1)N1CCCN1c1ccccc1
1.1%	-18.6%	Cc1cc(C)c(S(=O)(=O)N(CC(=O)NCc2cccnc2)C2CCCCC2)c(C)c1
-5.6%	.	COC(=O)c1cccc(Nc2c(-c3ccc(O)cc3)nc3nc[nH]n23)c1
3.0%	-6.8%	O=C(Nc1ccc(OCC(=O)N2CCOCC2)cc1)c1ccccc1Cl
9.2%	4.7%	COc1cc(NC(=O)c2ccccc2)cc(OC)c1
11.9%	3.1%	Oc1ccccc1-c1cc(-c2ccc(Cl)cc2)n[nH]1
14.7%	7.1%	CC(C)CC(=O)N=C1SC2CS(=O)(=O)CC2N1Cc1ccccc1Cl (stereo not drawn)
2.0%&14.7%	-5.9%	CCOc1ccc(NS(=O)(=O)c2ccc3c(c2)CCN3C(C)=O)cc1
-6.4%	-4.0%	CC1(C)C(=O)Nc2ccccc2N1C(=O)COC(=O)c1ccc(Cl)c(S(=O)(=O)NCc2ccccc2)c1
-0.4%	-5.6%	CCC(C)[C@H](NC(=O)Nc1ccc(S(N)(=O)=O)cc1)C(=O)O (stereo partly drawn)
-12.9%	-1.9%	O=C(CN1CCN(Cc2ccccc2)CC1)NCc1ccccc1Cl
2.8%	-3.4%	COc1ccc(/C=N/NC(=O)Cn2c(Cc3ccc(OC)c(OC)c3)nc3ccccc32)cc1OC
-9.5%	.	O=[N+]([O-])c1cccc(S(=O)(=O)/N=C(/Nc2ccccc2)c2ccccc2)c1
2.3%	3.3%	C/C=C/C(=O)N1c2ccc(C)cc2C(C)=CC1(C)C
-1.4%	-4.9%	O=C(COC(=O)CCCOc1ccccc1)NNC(=O)c1ccc([N+](=O)[O-])cc1
-0.3%	.	Cc1ccc(OCC(=O)N2CCC(C)CC2)c([N+](=O)[O-])n1
-0.5%	.	COc1cnn(-c2cc(Oc3ccc(C)cc3)ncn2)c(=O)c1Cl
-5.2%	-7.9%	O=C(CCS(=O)(=O)c1ccc(Br)cc1)N1CCN(c2ccc(F)cc2)CC1

Laid out differently: results already given
> CC(C)CC(=O)N=C1SC2CS(=O)(=O)CC2N1Cc1ccccc1Cl (stereo not drawn)
  FEN1 inhibitor = 14.7% | N370S GC mod = 7.1%
> CCOc1ccc(NS(=O)(=O)c2ccc3c(c2)CCN3C(C)=O)cc1
  FEN1 inhibitor = 2.0%&14.7% | N370S GC mod = -5.9%
> CC1(C)C(=O)Nc2ccccc2N1C(=O)COC(=O)c1ccc(Cl)c(S(=O)(=O)NCc2ccccc2)c1
  FEN1 inhibitor = -6.4% | N370S GC mod = -4.0%

(more compounds)
FEN1 inhibitor	N370S GC mod	structure
-4.0%	8.3%	Cc1cccc(-n2ncc3c(NCc4ccccc4)ncnc32)c1
2.6%	6.6%	Cc1occc1-c1nnc(SCC(=O)NCCc2ccccc2)o1
-4.3%	.	COc1ccccc1CNS(=O)(=O)c1ccc(C)cc1
0.4%	.	Cc1cc(C)cc(NS(=O)(=O)c2ccc3c(c2)OCC(C(=O)N2CCCC2)O3)c1 (stereo not drawn)
-2.1%	1.4%	Cc1cccc(/C=N/N(CCO)C2=NS(=O)(=O)c3ccccc32)c1
15.4%	6.1%	COC(=O)c1cn(NC(=O)Cc2ccc(OC)c(OC)c2)c(=O)c2ccccc12
-0.9%	-6.6%	CCCN(Cc1cc2ccccc2[nH]c1=O)C(=O)c1cccc([N+](=O)[O-])c1
3.1%	11.2%	Cc1ccc(CCNC(=O)CS(=O)Cc2nc(-c3cccc(C)c3)oc2C)cc1 (stereo not drawn)
-4.1%	4.8%	COc1cccc(C2CC(c3cccs3)=NN2S(C)(=O)=O)c1OC (stereo not drawn)
7.0%	-13.9%	CCOc1cc(/C=N/NC(=O)CSc2nncn2C)ccc1OCc1ccccc1
-3.2%	2.2%	O=C(O)CSc1c(O)c2ccccc2[nH]c1=O
-13.3%	10.0%	CCOC(=O)C1CCCN(C(=O)c2ccccc2SCCOC)C1 (stereo not drawn)
1.5%	-9.5%	COc1ccc(-c2ccc(SCC(=O)N3CCN(c4ccccc4)CC3)nn2)cc1
-14.0%	18.8%	COC(=O)c1[nH]c2cc(C)ccc2c1NC(=O)CN1CCCc2ccccc21
-12.7%	0.4%	COC(=O)CCSCc1cn2cc(Cl)ccc2n1
-12.5%	11.8%	CCc1ccc2c(c1)/C(=C/C(=O)c1cccs1)C(=O)N2
-21.3%	?	Clc1ccc(OCc2nnc(SCc3nnc(-c4ccccc4)o3)o2)c(Cl)c1
-15.9%	.	COCCNC(=O)c1cccc2c1C(=O)c1ccc(N3CCOCC3)cc1S2(=O)=O
13.4%	1.3%	Cc1ccc(-c2nc(S(=O)(=O)c3ccc(C)cc3)c(N3CCOCC3)o2)cc1
-2.5%	-12.1%	N#CC1=C(N)OC2=C(C(=O)CCC2)[C@]12C(=O)N(CC(N)=O)c1ccccc12
0.0%	?	CCc1cccc(NC(=O)CCS(=O)(=O)c2ccc3c(c2)NC(=O)CO3)c1
-14.3%	-6.4%	CCc1nnc(NS(=O)(=O)c2ccc(N/C=C/C(=O)c3ccc(OC)cc3)cc2)s1
2.0%	6.8%	COc1cc(NC(=O)c2noc3c2CCCC3)c(OC)cc1Cl
.	-4.6%	COC(=O)N1CCC2(CCCN(C(c3ccccc3)c3ccccc3)C2)CC1
2.0%	.	Cc1c(C(=O)OCC(=O)N2CCN(c3ccccc3)CC2)oc2ccccc12
12.1%	-8.8%	Cc1ccc(-c2nnc(SCC(=O)Nc3ccc(S(=O)(=O)N4CCCCCC4)cc3)o2)cc1
16.2%	-9.1%	Cc1ccc(NC(=O)c2ccc3c(c2)S(=O)(=O)c2ccccc2C3=O)cc1S(=O)(=O)N1CCOCC1
-0.2%	-20.5%	Cc1cc(C(=O)NP(=O)(N2CC(C)OC(C)C2)N2CC(C)OC(C)C2)c(C)n1C1CC1 (stereo not drawn)
-0.9%	1.8%	COCCCNC(=O)Cn1c(=O)n(CCCCCC(=O)Nc2ccccc2)c(=O)c2sccc21
-5.1%	4.4%	CC1Cc2ccccc2N1C(=O)CNc1ccccc1N1CCCCC1 (stereo not drawn)
-3.8%	.	CC12C=CC(=O)C=C1CCC1C2C(=O)CC2(C)C1CCC2(O)C(=O)CO (stereo not drawn)
-4.9%	-18.8%[2.35 µM]	COc1cccc(C(=O)N2CCCc3ccccc32)c1
-5.6%	-3.0%	CC(=O)Nc1ccc(-n2c(C)c(C(C)=O)c(C(C)=O)c2C)cc1
-4.7%	.	COc1ccc(CNC(=O)CCc2c(C)nc3c(c(C)nn3-c3ccccc3)c2C)cc1
-13.0%	4.7%	COc1cccc(N=Nc2c(N)[nH][nH]c2=O)c1
3.7%	3.2%	O=C1CC(c2ccc(Cl)c([N+](=O)[O-])c2)c2ccc3ccccc3c2N1 (stereo not drawn)
4.6%	-15.4%	COC(=O)[C@@H](c1ccccc1)N(C)S(=O)(=O)c1cccc(S(=O)(=O)N(C)[C@@H](C(=O)OC)c2ccccc2)c1
-16.6%	2.3%	Cc1ccc(NC(=S)N/N=C/c2ccc([N+](=O)[O-])s2)cc1
5.2%	-8.2%	CCc1ccc2[nH]c(=O)c(CN(CCN3CCOCC3)C(=O)Nc3ccccc3F)cc2c1
-18.2%	1.4%	CN(C)C(=O)c1ccc(Nc2ncnc3sc4c(c23)CCCCC4)cc1
2.6%	0.6%	COc1ccc(OC)c(/C=N/NC(=O)c2[nH]ncc2Br)c1
-3.3%	27.9%	COc1ccccc1NC(=O)COC(=O)/C=C/c1ccccc1[N+](=O)[O-]
-5.3%	-2.6%	Cc1ccc(CN2CCCN(Cc3cc(C)ccc3C)S2(=O)=O)cc1
-1.3%	0.9%	CC(=O)Nc1ccc2oc(-c3ccccc3)nc2c1
?	-9.4%	O=C1c2ccccc2C(=O)c2c1cccc2N1CCN(CCO)CC1
5.1%	1.8%	COc1ccc(CCN2C(=O)CC(C(N)=O)SC2=Nc2ccccc2)cc1 (stereo not drawn)

The list is partial, and most or all hits are left out here.
